# CSC inhib = cancer stem cell viability inhibitors, primary screen, luminescence; 300,000 tested, 1.1% active; AID 2717, 2010; inhibition, % at 7.5 µM; cancer stem cell-like cells viability;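 active = mean at 75% or more and at least half the replicates too; tested in HMLE shEcad cells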;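 note: 0% = median of negative and 100% = median of positive control wells; the first replicate is given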
# Rce1 inhib = yeast Rce1p protease inhibitors, primary screen, biochemical, fluorescence, cell-free homogeneous; yeast membranes, quenched prenylated peptide cleavage fluorescence; calls only; 290,000 tested, 0.27% active; AID 2563, 2010;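 active = fall in fluorescence gain of 50% or more versus controls, with final raw signal at or below 3038400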;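 note: plate controls were neutral control wells for no effect and wells lacking membranes for full effect; tested at 10 µM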
# Target sequence (Q03530 whole entry, looked up): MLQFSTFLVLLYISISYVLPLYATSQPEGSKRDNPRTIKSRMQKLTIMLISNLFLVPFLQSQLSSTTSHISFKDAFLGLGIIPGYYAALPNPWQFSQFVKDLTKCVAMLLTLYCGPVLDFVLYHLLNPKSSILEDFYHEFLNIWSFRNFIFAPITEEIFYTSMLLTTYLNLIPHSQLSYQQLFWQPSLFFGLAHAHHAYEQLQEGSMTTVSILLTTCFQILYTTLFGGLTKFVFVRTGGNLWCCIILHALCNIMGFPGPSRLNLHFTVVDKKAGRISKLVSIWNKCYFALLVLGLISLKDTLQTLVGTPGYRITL
# MT1-MMP act inh = blockers of MT1-MMP proenzyme processing, primary screen, HT1080 RFP-PRO-GFP cells, GFP/RFP fluorescence; GFP/RFP ratio fluorescence, overnight; percent of plate control window, DMSO zero; Matrix metalloproteinase-14 (Homo sapiens), P50281; GFP/RFP ratio change, % at 20 µM; 360,000 tested, 0.061% active;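 active = GFP/RFP ratio change of at least 30% with cell ATP level not reduced by more than half and red fluorescence within 50% of control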; note: strong numbers were not always called active
#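 Assay system: HT1080 RFP-PRO-GFP cells. Benchmarks: DMSO vehicle wells and RFP-L50D-GFP reporter cell wells. Times: overnight cell settling, then overnight compound exposure, 37 °C, 5% CO2. Compound: 20 µM single dose, 1% DMSO. Read-out basis: GFP/RFP fluorescence ratio.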
# eIF4H FP inh = human eIF4H binding inhibitors, primary screen, translation initiation inhibitor project, biochemical, uHTS, fluorescence polarization. Eukaryotic translation initiation factor 4H (Homo sapiens), Q15056. eIF4H fluorescence polarization binding assay. inhibition, % at 35 µM. 290,000 tested, 0.94% active. AID 2012, 2009;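 active = 50% or more with normal probe brightness, or confirmed in later tests; about a fifth of its hits are not listed in these tables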;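 note: calls also rest on retests at 20 µM and on dose response follow-up; 0% = protein and probe with vehicle and 100% = probe without protein; strong numbers were not always called active; many hits fall short of the cut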
# Env fusion inh = inhibitors of HIV-1 Env-driven cell-cell fusion, primary screen, HeLa-JRFL effector, CEM21 target cells, luciferase; inhibition, % at 12.3 µM; 360,000 tested, 1.1% active;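 active = mean replicate inhibition score of at least 50 and every replicate individually at or above 50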;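 note: 0% = plate neutral controls and 100% = maraviroc near 300 nM; one replicate is shown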
# UUG fidelity = modulators of yeast start codon fidelity, primary screen, whole organism, S. cerevisiae, single point, plate reader. S. cerevisiae UUG-firefly luciferase reporter, luminescence/redox ratio. activity score, % at 18.7 µM. 350,000 tested, 0.13% active;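 active = replicate mean at a twofold rise or more, about +100% in these data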;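 note: firefly luciferase made from a UUG start codon reports start codon fidelity; reporter light over untreated wells divided by growth signal over untreated wells; some hits fall short of that in this replicate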
# PABP FP inh = PABP poly(A) RNA binding inhibitors, primary screen, biochemical, fluorescence polarization, uHTS; Polyadenylate-binding protein 1 (Homo sapiens), P11940; 290,000 tested, 1% active; inhibition, % at 35 µM;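 active = 50% or more with normal probe brightness, or confirmed in later tests; about a fifth of its hits are not listed in these tables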;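 note: calls also rest on retests at 20 µM and on dose response follow-up; controls were probe without protein and protein plus probe with vehicle; some compounds called inactive have numbers as strong as hits; many hits fall short of the cut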
# Target sequence (P11940 whole entry, looked up): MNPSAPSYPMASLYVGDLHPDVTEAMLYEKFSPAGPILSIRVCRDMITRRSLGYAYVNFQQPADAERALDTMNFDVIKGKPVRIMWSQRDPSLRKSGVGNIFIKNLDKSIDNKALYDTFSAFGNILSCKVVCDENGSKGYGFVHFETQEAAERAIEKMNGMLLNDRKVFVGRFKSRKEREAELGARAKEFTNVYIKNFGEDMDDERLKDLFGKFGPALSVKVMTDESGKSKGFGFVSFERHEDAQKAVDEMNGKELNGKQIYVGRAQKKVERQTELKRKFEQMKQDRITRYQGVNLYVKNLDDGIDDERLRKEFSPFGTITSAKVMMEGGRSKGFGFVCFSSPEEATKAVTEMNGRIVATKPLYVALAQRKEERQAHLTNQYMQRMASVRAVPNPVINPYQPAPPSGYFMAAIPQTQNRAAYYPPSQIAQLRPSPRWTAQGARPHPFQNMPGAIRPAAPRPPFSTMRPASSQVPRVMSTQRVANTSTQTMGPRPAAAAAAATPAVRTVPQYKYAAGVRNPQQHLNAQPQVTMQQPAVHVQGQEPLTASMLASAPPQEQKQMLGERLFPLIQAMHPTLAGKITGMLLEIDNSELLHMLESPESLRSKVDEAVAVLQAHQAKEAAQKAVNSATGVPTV
# MT1-MMP act inh RFP = further read-out of MT1-MMP act inh, marked with its call; RFP signal change, %; measured here: RFP expression control read;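 0 = vehicle wells; hits needed this value within 50% of zero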
# * marks the source's active call; other numbers are inactive results; i = inactive; / = not tested or not shown. Not all compounds are listed; count on the stated rates, not on these rows.
# The first 2 records, to show the layout:
smiles	CSC inhib	Rce1 inhib	MT1-MMP act inh	MT1-MMP act inh RFP	eIF4H FP inh	Env fusion inh	UUG fidelity	PABP FP inh
COc1ccccc1N1CCN(C(=O)c2cccs2)CC1	-6.6	i	1.3	2.0	-10.8	1.3	-16.7	-2.2
COCCCNC(=O)CNC(=O)c1cn(-c2ccccc2OC)c(=O)c2ccccc12	-12.4	i	-2.1	0.4	-5.8	5.5	/	-3.6

# The whole of this part, from the first entry:
smiles	CSC inhib	Rce1 inhib	MT1-MMP act inh	MT1-MMP act inh RFP	eIF4H FP inh	Env fusion inh	UUG fidelity	PABP FP inh
COc1ccccc1N1CCN(C(=O)c2cccs2)CC1	-6.6	i	1.3	2.0	-10.8	1.3	-16.7	-2.2
COCCCNC(=O)CNC(=O)c1cn(-c2ccccc2OC)c(=O)c2ccccc12	-12.4	i	-2.1	0.4	-5.8	5.5	/	-3.6
CCN(CC)C(=O)/C(=C/c1ccc2c(c1)OCO2)NC(=O)c1ccc(Br)cc1	-11.9	/	2.9	4.0	2.0	5.1	/	-8.1
COc1ccc(CCNC(=O)C(=O)Nc2ccc3c(c2)OCO3)cc1OC	-14.2	i	2.5	7.8	6.7	7.4	1.1	1.0
COc1ccc(-c2cn(CCCOCc3ccccc3)nn2)cc1	-13.1	i	6.1	-2.2	3.7	1.9	-10.5	-3.4
CCC(=O)Nc1c(C)ccc2nsnc12	-5.5	i	0.6	4.8	-4.4	-49.7	-13.8	4.3
CCOC(=O)C1CCN(C(=O)Nc2ccc3c(c2)nc(C)n3C)CC1	10.1	i	3.3	0.0	3.1	/	/	-8.4
COc1ccc(CNC(=O)c2cc(SC)ccc2Cl)cc1OC	2.8	i	6.7	-9.9	-9.2	4.7	/	0.1
Cc1nc(C)c(-c2csc(Nc3cccc(O)c3)n2)s1	4.9	i	-3.7	-14.1	-6.5	-234.7	/	9.5
CCOc1ccc(NS(=O)(=O)c2ccc(OC)c(NC(=O)c3ccc4c(c3)OCCO4)c2)cc1	2.5	i	-8.6	-8.8	-9.7	-28.4	-13.1	-1.5
O=C(NCCN1CCOCC1)c1cc(Cl)ccc1Cl	-4.5	i	-1.4	2.7	-6.4	2.6	-15.3	4.6
C=CCN1CCN(C(c2ccc(Cl)cc2)c2nnnn2CCc2ccc(OC)c(OC)c2)CC1 (centres undefined)	-3.1	i	-1.9	1.6	-3.4	/	-9.3	-0.9
CC(=O)c1ccc(N2CCN(C(=O)CCc3ccccc3)CC2)cc1	-6.4	i	-0.2	-0.4	8.4	-3.0	-9.6	21.7
COc1ccc(NC(=O)c2cc(S(=O)(=O)N3CCCCC3)ccc2OC)cc1	-2.5	i	2.3	-2.5	8.6	-3.8	-17.5	4.4
O=C(Nc1cccc(S(=O)(=O)N2CCCCC2)c1)c1cnccn1	-10.7	i	-0.7	-0.5	-0.1	4.5	14.4	2.6
CC(C)Oc1ccc(C(=O)Nc2nnc(C3=COCCO3)o2)cc1	22.4	i	2.7	1.1	/	/	-26.7	/
C=CCN(C(=O)CN1CCCCC1)c1nc(-c2ccccc2)cs1	21.0	i	-3.9	-5.8	-4.7	-9.9	-7.3	-5.6
CCn1cc(C(=O)NCc2ccccc2OC)c(=O)c2cc(S(=O)(=O)N(C)C)ccc21	-11.1	i	0.3	-0.2	-8.0	5.9	-16.4	-3.0
COc1cc(OC)cc(C(=O)NCC2CCCN(Cc3cccc(C(C)=O)c3)C2)c1 (centres undefined)	7.7	i	-1.2	4.4	-4.5	-3.4	-4.3	-5.2
C/C(=N\NC(=O)c1cccc(O)c1)c1ccc(NC(=O)Cc2ccccc2)cc1	1.9	i	1.3	1.8	0.8	-32.3	-8.9	-5.0

# 4 entries out of the list, arranged by molecular weight, lowest first.
smiles	CSC inhib	Rce1 inhib	MT1-MMP act inh	MT1-MMP act inh RFP	eIF4H FP inh	Env fusion inh	UUG fidelity	PABP FP inh
O=C(NCCN1CCOCC1)c1cc(Cl)ccc1Cl	-4.5	i	-1.4	2.7	-6.4	2.6	-15.3	4.6
CC(C)Oc1ccc(C(=O)Nc2nnc(C3=COCCO3)o2)cc1	22.4	i	2.7	1.1	/	/	-26.7	/
CCn1cc(C(=O)NCc2ccccc2OC)c(=O)c2cc(S(=O)(=O)N(C)C)ccc21	-11.1	i	0.3	-0.2	-8.0	5.9	-16.4	-3.0
C=CCN1CCN(C(c2ccc(Cl)cc2)c2nnnn2CCc2ccc(OC)c(OC)c2)CC1 (centres undefined)	-3.1	i	-1.9	1.6	-3.4	/	-9.3	-0.9

# Continuation.
smiles	CSC inhib	Rce1 inhib	MT1-MMP act inh	MT1-MMP act inh RFP	eIF4H FP inh	Env fusion inh	UUG fidelity	PABP FP inh
Nc1c(C(=O)Nc2ccccc2)sc2nc(-c3ccco3)ccc12	28.9	i	-18.3	-2.6	75.3*	-81.5	/	75.7*
O=C(NC(=S)Nc1ccc(N2CCCCC2)c(Cl)c1)c1ccc2c(c1)OCCO2	88.6*	i	-4.4	-20.3	-1.6	70.4*	-17.5	-14.7
CCOC(=O)c1ccc(Oc2cc(C)nc(SC)n2)cc1	68.0	i	0.3	-8.7	-8.5	-1.0	-21.0	-13.7
CC(=O)c1ccc(OCc2cc(C(=O)N(C)C(C)c3ccon3)no2)cc1 (centres undefined)	-2.0	i	2.0	-3.9	-11.5	5.2	7.5	1.9
COc1ccc(S(=O)(=O)N2CCN(C/C=C/c3ccccc3)CC2)cc1F	18.3	i	-4.2	-5.6	4.5	-8.5	-4.1	15.0
COc1ccc(OC)c(/C=C/c2ccc3cccc(O)c3n2)c1	39.3	i	13.8	1.8	19.9	-6.6	/	-6.5
Cc1cc(=O)oc2ccc(OCC(=O)NCc3ccco3)cc12	-0.1	i	3.1	11.0	-4.5	21.7	-5.1	-10.5
Cc1cccc(C(=O)Nc2cccc(C(=O)N/N=C/c3ccc4c(c3)OCO4)c2)c1	35.3	i	-5.0	-4.8	-8.4	-10.1	-11.6	3.3
CCc1ccccc1NC(=O)CN(C)C(=O)COC(=O)c1cccnc1Cl	-0.3	/	0.6	2.1	/	-10.5	-3.0	/
O=C(CCNC(=O)N1CC(=O)Nc2ccccc21)Nc1ccc(Br)cc1F	-9.7	i	1.1	-1.8	-16.9	3.2	-23.5	-0.5
CC(=O)N/C(N)=N/c1nc2cc(C)ccc2o1	-13.4	i	2.0	-0.2	-5.0	-61.6	/	-8.2
COc1ccc(N(C)C(=O)C2CCCN2S(=O)(=O)c2cccc3nsnc23)cc1 (centres undefined)	-10.5	i	0.1	1.7	-7.3	1.7	-8.5	2.8
CN(C)c1ccc(-c2cccc3nccn23)cc1	/	/	8.8	5.9	/	-6.2	-19.8	/
O=C(Cn1cnc2ccccc2c1=O)NCC(=O)N1CCN(Cc2ccc3c(c2)OCO3)CC1	-7.7	/	-0.3	0.8	-3.2	/	-6.4	-3.6
Cc1cc(C)c[n+](C2=C([O-])c3ccccc3C(=O)/C2=N\S(=O)(=O)c2cccs2)c1	23.7	i	-8.2	-1.2	24.7	18.9	/	13.5
O=S(=O)(NCc1ccccn1)c1cccc2nsnc12	-9.4	i	-1.0	-3.9	-3.4	/	-3.8	-2.0
N#CCC(=O)Nc1ccc(C(=O)OCC(=O)N(Cc2ccccc2)C2CCS(=O)(=O)C2)cc1 (centres undefined)	14.5	i	-2.7	3.2	-3.7	-0.5	/	-3.9
CCC(CC)C(=O)N(C)c1c(C)nc2c(OCc3ccccc3OC)cccn12	/	/	-6.9	-7.6	/	i	-14.1	/
Cc1ccc(NC(=O)NC2CCCCCCC2)cc1	8.7	i	0.8	1.7	4.3	-49.0	-14.3	3.8
Cc1cc(CN(C)C(=O)c2cc(COc3ccc(F)cc3Cl)on2)n[nH]1	-0.6	i	-1.6	-1.7	-3.7	-31.8	/	-5.9
COc1cc(NC(=O)C(C)Oc2ccccc2)c(C(=O)O)cc1OC (centres undefined)	-9.8	i	1.0	3.4	-9.1	-68.1	-7.7	-3.6
C=CCC[C@@H](Cc1ccc(F)cc1)C(=O)OC[C@@H]1CCCN1C(=O)[C@H](CC=C)CC(=O)N[C@H](CO)Cc1ccccc1	/	/	-3.4	-15.1	/	-2.6	10.4	/
COc1ccc(CSc2nnnn2C)cc1[N+](=O)[O-]	-5.1	i	2.1	4.5	-4.3	-30.8	6.4	3.5
O=C(NCCc1cccs1)C1CC(c2ccccc2[N+](=O)[O-])=NO1 (centres undefined)	-10.5	i	-0.4	1.3	11.6	-30.6	-1.4	-1.0
Cc1cc(C(=O)Oc2cccnc2)ccc1[N+](=O)[O-]	-5.1	i	4.6	8.1	-1.7	0.8	-33.3	15.6
O=C1OCCN1C(=O)[C@H]1[C@H](c2ccccc2)C(c2cccc(Cl)c2)=NN1c1ccc(Br)cc1	/	/	0.8	0.1	/	-7.3	-6.3	/
COC(CNC(=O)CN1C(=O)COc2ccc(S(=O)(=O)N3CCOCC3)cc21)OC	/	i	-0.9	2.3	4.5	-5.4	-18.0	10.1
O=C(O)CNC(=O)c1ccc(NC(=O)/C(=C/c2ccccc2)NC(=O)c2ccco2)cc1	-8.6	i	0.6	3.7	3.0	-6.2	-1.6	1.5
CC(=O)Nc1ccc(Oc2cc(N)cc([N+](=O)[O-])c2)cc1	-3.7	i	-0.5	3.4	7.5	-4.6	/	11.4
CCOc1ccc(C(=O)Nc2ccc(-c3cc4ccccc4oc3=O)c(C)c2)cc1[N+](=O)[O-]	-13.3	i	-2.5	-18.3	-11.4	31.3	/	-3.1
COc1ccc(C(=O)NC2CCN(C(=S)Nc3ccc(C)c(C)c3)CC2)cc1	-5.0	i	1.6	-0.6	-9.1	18.2	-21.5	-10.2
Cc1nnc(NC(=O)CSc2ccc3nnc(-c4ccccn4)n3n2)s1	-14.5	i	-0.9	2.0	4.1	-16.9	/	27.7
CN(C(=O)COC(=O)/C=C/c1cccc([N+](=O)[O-])c1)C1CCS(=O)(=O)C1 (centres undefined)	91.5*	i	0.4	-2.1	-7.3	12.1	-19.7	-1.6
Cc1ccc(Cc2nc3ccccc3[nH]2)cc1	-9.5	i	0.7	-2.8	-14.0	-14.5	-13.5	-8.7
CCC(C(=O)N1CCCCCC1)n1nc(C)n2c(cc3occc32)c1=O (centres undefined)	8.8	i	-5.4	-3.7	-5.5	-0.8	1.1	5.4
CCOC(=O)C1=CN(Cc2cccc(-c3ccc(F)cc3)c2)S(=O)(=O)N(C)C1C (centres undefined)	/	/	-4.8	-9.2	/	-7.3	-13.5	/
COc1ccc(OC)c(NC(=O)NCCc2c[nH]c3ccccc23)c1	5.1	i	2.6	2.3	9.6	3.2	13.8	3.0
COc1ccc(C(=O)CSc2nnc(CNC(=O)c3ccccc3)n2C)cc1	-16.0	i	3.0	1.6	-13.0	-10.7	-15.2	-6.9
CC(C)OCCCNS(=O)(=O)c1ccc2ccccc2c1	2.6	i	8.2	0.4	-6.0	2.7	-4.3	-4.7
